Screening results: PubChem BioAssay, several laboratories
UCH37 inh – inhibitors of human deubiquitinating enzyme UCH37. inhibition, % (no concentration beside the values). purified proteasome/UCH37, Ub-AMC cleavage fluorescence. 330,000 compounds, 0.33% hits;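 active = mean of two replicates above 20%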;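 note: 0% = compound-free wells with enzyme and 100% = wells lacking proteasome; stock transfer was 100 nL into about 20 µL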
Target sequence (Q9Y5K5 whole entry, looked up): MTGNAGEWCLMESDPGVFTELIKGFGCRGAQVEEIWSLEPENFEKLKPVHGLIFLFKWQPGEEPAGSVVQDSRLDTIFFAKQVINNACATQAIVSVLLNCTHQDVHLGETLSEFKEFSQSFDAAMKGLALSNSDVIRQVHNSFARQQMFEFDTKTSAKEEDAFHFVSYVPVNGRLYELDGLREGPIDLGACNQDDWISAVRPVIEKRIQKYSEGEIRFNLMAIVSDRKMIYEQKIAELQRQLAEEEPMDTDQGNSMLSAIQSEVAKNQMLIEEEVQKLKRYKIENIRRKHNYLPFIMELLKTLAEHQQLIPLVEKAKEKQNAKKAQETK
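Material: Human UCH37 enzyme supplied as purified proteasome complex | Schedule: 30 min preincubation with enzyme, 25 min cleavage at room temperature | Detection: AMC fluorescence 355/460 nm | Measure: % inhibition of Ub-AMC cleavage fluorescence | Controls: Wells without proteasome as full block, compound-free enzyme plus substrate as uninhibited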
T cruzi inh – T. cruzi replication inhibition; T. cruzi beta-gal in NIH3T3, luminescence, 90 h; inhibition, % (test concentration not listed); 300,000 compounds, 1.4% hits;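 active = mean inhibition across valid replicates above about 55%, limit read from the data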;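 note: signal also drops with host cell toxicity which is not excluded here; 0% = plate median of DMSO wells and 100% = zero luminescence signal; higher percent means less beta-gal luminescence so fewer parasites; stock transfer was 50 nL into about 50 µL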
FGF22 binding – binders of recombinant human FGF22 by thermal shift; SYPRO orange fluorescence; percent of sucrose octasulfate shift, DMSO zero; calls only at 9.99 µM; 340,000 compounds, 1.5% hits; AID 651658;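 active = melting point raised past a set limit in the mean and every replicate; three in four hits are not shown here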
Target sequence (Q9HCT0 whole entry, looked up): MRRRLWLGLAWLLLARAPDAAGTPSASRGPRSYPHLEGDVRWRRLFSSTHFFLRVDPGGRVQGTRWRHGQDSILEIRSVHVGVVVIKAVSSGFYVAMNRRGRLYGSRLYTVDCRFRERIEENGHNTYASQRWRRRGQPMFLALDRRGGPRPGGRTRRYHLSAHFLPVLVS
Beta apoptosis – beta cell apoptosis inhibition; 300,000 compounds, 0.8% hits; protection from apoptosis, % (no concentration beside the values); AID 435005; INS-1E cytokine-induced death, ATP luminescence, 48 h; percent of positive-control rescue, neutral wells zero;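 active = all replicates at 75% or more, or half of them and the mean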;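 note: 0% = cytokine-treated negative control wells and 100% = positive control rescue; higher means more ATP so stronger rescue from cytokine killing; wells of about 40 µL received 100 nL stock; the first replicate is given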
Ecoli growth – E. coli growth inhibition; Escherichia coli growth, OD600, 23 h; active compounds read low; OD600 absorbance (no concentration beside the values); 330,000 compounds, 0.21% hits; AID 1053175;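 active = OD600 absorbance below the run mean of sample wells minus 3.6 SD, in any replicate, cut at about 0.56 in these data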;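 note: stock transfer was 300 nL into about 60 µL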
AF4-AF9 inh – blocks AF4 peptide binding to human AF9 | P42568 | AlphaScreen, biotin-AF4 peptide binding to FLAG-AF9 | inhibition, % at 10 µM | 350,000 compounds, 0.47% hits;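 active = every replicate reaching a set inhibition limit, whatever the replicate mean, cut at about 25% in these data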;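 note: 0% = plate neutral control median and 100% = total signal loss; the record names both 10 and 1 µM as test concentration; the first replicate is given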
Target sequence (P42568 whole entry, looked up): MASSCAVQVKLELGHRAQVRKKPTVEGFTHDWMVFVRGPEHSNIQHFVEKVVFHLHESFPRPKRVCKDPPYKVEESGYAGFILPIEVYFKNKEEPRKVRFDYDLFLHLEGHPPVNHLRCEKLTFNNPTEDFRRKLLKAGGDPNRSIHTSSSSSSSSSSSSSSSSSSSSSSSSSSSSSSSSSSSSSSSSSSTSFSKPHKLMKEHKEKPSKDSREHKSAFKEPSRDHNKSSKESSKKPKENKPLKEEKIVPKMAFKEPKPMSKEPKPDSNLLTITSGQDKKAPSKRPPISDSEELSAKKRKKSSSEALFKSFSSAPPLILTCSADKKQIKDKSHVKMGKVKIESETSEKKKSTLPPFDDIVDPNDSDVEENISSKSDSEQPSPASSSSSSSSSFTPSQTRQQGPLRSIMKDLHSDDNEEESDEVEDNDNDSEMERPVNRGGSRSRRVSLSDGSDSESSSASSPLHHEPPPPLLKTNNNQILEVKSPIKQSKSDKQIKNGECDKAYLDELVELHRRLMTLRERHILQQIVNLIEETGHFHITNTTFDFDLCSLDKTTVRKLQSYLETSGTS
A1 inh – inhibitors of the anti-apoptotic protein A1, read as caspase activation; MEF A1-2A-BIM cells, Caspase-Glo 3/7 luminescence, 3 h; percent of clofoctol response, vehicle zero; 330,000 compounds, 0.066% hits; caspase activation, % (no concentration beside the values);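 active = over half of replicate activation scores above 10%, or exactly half above 10 with the replicate mean above 10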;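 note: wells of about 30 µL received 50 nL stock; many hits fall short of the cut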
rRNA inh HTS – inhibitors of bacterial rRNA selective over humanized ribosomes | GFP signal change (wild-type ribosome), % (concentration not given with the values) | E. coli WT GFP vs humanized-ribosome RFP mutants, fluorescence, 24 h; active compounds read low; DMSO median 0, no signal -100 | 350,000 compounds, 1.6% hits;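 active = significant combined selectivity score with lowered wild-type GFP, culture density cut under 30%, mutant RFP and density less affected; inactive = any of these conditions unmet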; note: one replicate is shown; some compounds called inactive have numbers as strong as hits
rRNA inh HTS OD600 – second read-out of rRNA inh HTS, no call of its own (marks repeat the call); OD600 change, %; measured here: OD600 growth;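 optical density of the mix in the first replicate; 0 = DMSO median and -100 = no signal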
rRNA inh HTS RFP – recorded beside rRNA inh HTS, whose call it bears; RFP signal change, %; measured here: RFP humanized mutant strains;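 first replicate; 0 = DMSO median and -100 = no signal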
* hit, by the source's call. This is a subset, so the mix of outcomes need not match the whole.

For O=C(O)c1cc(-c2ccc(Cl)cc2)n(-c2ccc(Cl)cc2)n1 the results were UCH37 inh 0.4, T cruzi inh -4, FGF22 binding inactive, Beta apoptosis -5, Ecoli growth 0.67, AF4-AF9 inh -5.7, A1 inh 0.0, rRNA inh HTS -41, rRNA inh HTS OD600 -65 and rRNA inh HTS RFP -8.2.
`CCOC(=O)c1ccc(Nc2nnc(C)c3ccccc23)cc1` gave UCH37 inh -3.3, T cruzi inh 31, FGF22 binding inactive, Beta apoptosis -2, Ecoli growth 0.66, AF4-AF9 inh -3.0 and A1 inh -1.9.
`COc1ccc(S(=O)(=O)N2CCC3(CC2)OCCO3)cc1` gave UCH37 inh 4.4, T cruzi inh -15, FGF22 binding inactive, Beta apoptosis -5, Ecoli growth 0.69, AF4-AF9 inh -0.3, A1 inh -0.1, rRNA inh HTS 20, rRNA inh HTS OD600 10 and rRNA inh HTS RFP 1.3.
For Cc1ccc2nc(C)c(C(=O)NN=C3CCN(C)CC3)n2c1 the results were UCH37 inh 1.1, T cruzi inh -15, FGF22 binding inactive, Beta apoptosis 0, Ecoli growth 0.74, AF4-AF9 inh 0.2, A1 inh 0.2, rRNA inh HTS 3, rRNA inh HTS OD600 7 and rRNA inh HTS RFP -0.9.
For CCC1=[N+](CC(=O)c2ccc(C)cc2)CCn2cccc21 the results were UCH37 inh 4.5, T cruzi inh 41, FGF22 binding inactive, Beta apoptosis 0, Ecoli growth 0.74, AF4-AF9 inh 6.8 and A1 inh 1.6.
For CC12CC(NC(=O)N1c1cccc(C(=O)NCc3ccc4c(c3)OCO4)c1)c1cc(Cl)ccc1O2 (centres undefined) the results were UCH37 inh 0.0, T cruzi inh -7, Beta apoptosis 0, Ecoli growth 0.7 and A1 inh 0.5.
For Cn1c(SCC(=O)N2CCN(Cc3ccccc3)CC2)nnc1-c1ccncc1 the results were UCH37 inh 7.2, T cruzi inh -12, Beta apoptosis -3, Ecoli growth 0.61 and A1 inh -0.2.
CN1CCN(CCCCOc2cccc3ccccc23)CC1 was read as UCH37 inh 1.4, T cruzi inh 39, FGF22 binding inactive, Beta apoptosis -6, Ecoli growth 0.68, AF4-AF9 inh 3.4, A1 inh 0.2, rRNA inh HTS 4, rRNA inh HTS OD600 -9 and rRNA inh HTS RFP 19.
`Cc1ccc(C)c(N/C=C(\C#N)c2nc3ccccc3o2)c1` gave UCH37 inh -14, T cruzi inh 12, Beta apoptosis 4, Ecoli growth 0.82 and A1 inh -0.3.
COc1ccc(CN(C)C(=O)c2ccc(NS(=O)(=O)c3ccc4[nH]c(=O)[nH]c4c3)cc2)c(OC)c1OC was read as FGF22 binding inactive, Beta apoptosis -1, AF4-AF9 inh 0.9, A1 inh 0.6, rRNA inh HTS 2, rRNA inh HTS OD600 9 and rRNA inh HTS RFP -0.3.
For CCCOc1ccc(/C(O)=C2/C(=O)C(=O)N(CCCn3ccnc3)C2c2ccco2)cc1 (centres undefined) the results were UCH37 inh 13, T cruzi inh 10, Beta apoptosis 0, Ecoli growth 0.71 and A1 inh 0.1.
`Cc1noc(NS(=O)(=O)c2ccc(NC(=O)C34CC5CC(C3)CC(n3cnc(Br)n3)(C5)C4)cc2)c1C` gave UCH37 inh 4.8, T cruzi inh -5, Beta apoptosis -6, Ecoli growth 0.74, AF4-AF9 inh -2.2 and A1 inh -0.4.
`C=CC(COCc1ccccc1)N([C@@H](Cc1ccccc1)C(=O)OC)S(=O)(=O)c1ccccc1Br` (some centres undefined) gave UCH37 inh -0.8, FGF22 binding inactive, Beta apoptosis -9, AF4-AF9 inh -0.1, A1 inh -0.2, rRNA inh HTS 9, rRNA inh HTS OD600 6 and rRNA inh HTS RFP -2.4.
`Cn1c(C(=O)OC(C(=O)NCC2CCCO2)c2cccnc2)cc2sccc21` (centres undefined) gave UCH37 inh 0.8, T cruzi inh 29, FGF22 binding inactive, Beta apoptosis 0, Ecoli growth 0.65, AF4-AF9 inh 1.4, A1 inh 2.4, rRNA inh HTS -7, rRNA inh HTS OD600 -2 and rRNA inh HTS RFP -6.9.
N#C/C(=C\c1c(Cl)cccc1Cl)c1nc2ccccc2[nH]1 was read as UCH37 inh -87, T cruzi inh 20, FGF22 binding inactive, Beta apoptosis 6, Ecoli growth 0.63, AF4-AF9 inh -23, A1 inh -0.4, rRNA inh HTS -51, rRNA inh HTS OD600 -75 and rRNA inh HTS RFP -17.
Screening O=C(CCC(=O)Nc1cccc(Cl)c1)N/N=C/c1cc([N+](=O)[O-])ccc1O returned T cruzi inh -5, FGF22 binding inactive, Beta apoptosis 29, AF4-AF9 inh 0.7, A1 inh 1.2, rRNA inh HTS 3, rRNA inh HTS OD600 -3 and rRNA inh HTS RFP -3.5.
Cc1cccc[n+]1CCCCCCCCCC[n+]1ccccc1C was read as UCH37 inh 0.2, T cruzi inh -15, FGF22 binding inactive, Beta apoptosis 5, Ecoli growth 0.61, AF4-AF9 inh -1.5, A1 inh 1.3, rRNA inh HTS 16, rRNA inh HTS OD600 12 and rRNA inh HTS RFP 1.1.
Screening O=C(N/N=C/c1ccc([N+](=O)[O-])o1)c1cc(-c2ccc(-c3ccccc3)cc2)nc2ccccc12 returned T cruzi inh 43, FGF22 binding inactive, Beta apoptosis 24, AF4-AF9 inh -2.7, A1 inh -0.4, rRNA inh HTS -12, rRNA inh HTS OD600 -12 and rRNA inh HTS RFP 4.4.
Screening COc1cc([N+](=O)[O-])ccc1NC(=S)NNC(=O)CCC(=O)Nc1ccccc1Cl returned UCH37 inh 4.7, T cruzi inh 0, FGF22 binding inactive, Beta apoptosis -7, Ecoli growth 0.72, AF4-AF9 inh -0.9, A1 inh -0.7, rRNA inh HTS -17*, rRNA inh HTS OD600 -3.7* and rRNA inh HTS RFP 5.1*.
CCS(=O)(=O)NCCc1cc2ccc(C)cc2[nH]c1=O was read as UCH37 inh 1.1, T cruzi inh -8, Beta apoptosis -2, Ecoli growth 0.78 and A1 inh -0.5.

Three compounds out of the list, sorted by number of heavy atoms, ascending:
For O=C(O)c1cc(-c2ccc(Cl)cc2)n(-c2ccc(Cl)cc2)n1 the results were UCH37 inh 0.4, T cruzi inh -4, FGF22 binding inactive, Beta apoptosis -5, Ecoli growth 0.67, AF4-AF9 inh -5.7, A1 inh 0.0, rRNA inh HTS -41, rRNA inh HTS OD600 -65 and rRNA inh HTS RFP -8.2.
`CCOC(=O)c1ccc(Nc2nnc(C)c3ccccc23)cc1` gave UCH37 inh -3.3, T cruzi inh 31, FGF22 binding inactive, Beta apoptosis -2, Ecoli growth 0.66, AF4-AF9 inh -3.0 and A1 inh -1.9.
Screening O=C(N/N=C/c1ccc([N+](=O)[O-])o1)c1cc(-c2ccc(-c3ccccc3)cc2)nc2ccccc12 returned T cruzi inh 43, FGF22 binding inactive, Beta apoptosis 24, AF4-AF9 inh -2.7, A1 inh -0.4, rRNA inh HTS -12, rRNA inh HTS OD600 -12 and rRNA inh HTS RFP 4.4.

(further entries)
CCCSc1nc(N)c(C#N)c(-c2ccc(C)cc2)c1C#N was read as UCH37 inh 0.7, T cruzi inh 13, Beta apoptosis -9, Ecoli growth 0.78 and A1 inh 0.6.
`CCN1C(=O)[C@H]2[C@@H](c3ccc(-c4ccc(OC)cc4)cc3)N3CCC[C@@]3(C(=O)OC)[C@H]2C1=O` gave UCH37 inh 0.5, T cruzi inh 15, FGF22 binding inactive, Beta apoptosis -8, AF4-AF9 inh -12, A1 inh -1.5, rRNA inh HTS 1, rRNA inh HTS OD600 7 and rRNA inh HTS RFP 10.
O=C(NCCN1CCOCC1)c1ccc(F)cc1 was read as UCH37 inh 0.8, T cruzi inh -23, Beta apoptosis -2, Ecoli growth 0.69 and A1 inh 0.1.
COc1ccc(OC)c(C(=O)CSc2nnnn2C)c1 was read as UCH37 inh 5.3, T cruzi inh -8, Beta apoptosis -11, Ecoli growth 0.71 and A1 inh 0.7.
`O=C1c2ccsc2SCCN1Cc1cccc(F)c1` gave UCH37 inh 4.0, T cruzi inh 1, FGF22 binding inactive, Beta apoptosis -8, Ecoli growth 0.69, AF4-AF9 inh -3.3, A1 inh 3.3, rRNA inh HTS -11, rRNA inh HTS OD600 -17 and rRNA inh HTS RFP -1.8.
For CCCN(C(=O)COC(=O)c1[nH]c(C)c(C(=O)OC)c1C)c1c(N)n(Cc2ccccc2)c(=O)[nH]c1=O the results were UCH37 inh -6.3, T cruzi inh -7, Beta apoptosis 2, Ecoli growth 0.67, AF4-AF9 inh 1.2, A1 inh -0.8, rRNA inh HTS -5, rRNA inh HTS OD600 -7 and rRNA inh HTS RFP 1.8.
CCCCn1c(SCC(=O)Nc2cc(C)on2)nc2ccsc2c1=O was read as UCH37 inh 1.6, T cruzi inh 17, Beta apoptosis 5, Ecoli growth 0.75 and A1 inh 0.2.
CCn1cc(CNC(=O)CC2C(=O)NCCN2CC(c2ccccc2)c2ccccc2)cn1 (centres undefined) was read as UCH37 inh -0.6, T cruzi inh -3, FGF22 binding inactive, Beta apoptosis -4, Ecoli growth 0.63, AF4-AF9 inh 0.8, A1 inh 1.9, rRNA inh HTS 4, rRNA inh HTS OD600 12 and rRNA inh HTS RFP 0.2.
Screening CCOC(=O)C1=C(C)N(C)C(C)=C(C(=O)OCC)C1c1ccncc1 returned UCH37 inh 3.5, T cruzi inh 7, Beta apoptosis 0, Ecoli growth 0.68 and A1 inh 1.1.
For CN(c1ccccc1C(=O)Nc1ccc(F)c(Cl)c1)S(C)(=O)=O the results were UCH37 inh 2.9, T cruzi inh 10, FGF22 binding inactive, Beta apoptosis -4, Ecoli growth 0.67, AF4-AF9 inh -6.7, A1 inh 0.2, rRNA inh HTS -3, rRNA inh HTS OD600 6 and rRNA inh HTS RFP -1.5.
`O=[N+]([O-])c1ccc(NNS(=O)(=O)c2cc(Cl)ccc2Cl)nc1` gave UCH37 inh 10, T cruzi inh 5, FGF22 binding inactive, Beta apoptosis 2, Ecoli growth 0.71, AF4-AF9 inh -0.2, A1 inh -2.1, rRNA inh HTS 3, rRNA inh HTS OD600 -4 and rRNA inh HTS RFP 6.7.
`N#CCSc1nnc(C2CCCCC2)n1Cc1ccccc1` gave UCH37 inh -0.3, T cruzi inh 3, Beta apoptosis -3, Ecoli growth 0.71 and A1 inh 0.4.
For O=C(CCC(=O)CCN1CCCCC1)CCN1CCCCC1 the results were UCH37 inh 1.0, T cruzi inh -19, Ecoli growth 0.7 and A1 inh -0.2.
Screening CCOc1ccc(/C=N/Nc2nc(C)cs2)c(O)c1 returned T cruzi inh -10, FGF22 binding inactive, Beta apoptosis -7, AF4-AF9 inh 13, A1 inh 1.7, rRNA inh HTS 5, rRNA inh HTS OD600 4 and rRNA inh HTS RFP 1.8.
For CN(CCc1ccccc1)C(=O)c1ccc(NC(=O)Cc2cccc(NC(=O)C3CCN(C(=O)C4CCC4)CC3)c2)cc1 the results were UCH37 inh 4.4, FGF22 binding inactive, Ecoli growth 0.69, AF4-AF9 inh 2.0, rRNA inh HTS -2, rRNA inh HTS OD600 -8 and rRNA inh HTS RFP 1.2.
